# Source: PubChem (National Center for Advancing Translational Sciences (NCATS))
# gsp ag – qHTS for Agonist of gsp, the Etiologic Mutation Responsible for Fibrous Dysplasia/McCune-Albright Syndrome: qHTS | Potency, µM (doses to about 76.9 µM), inactives show at the highest dose activation (cAMP increase), most hits filed as activators | 0.13% of 340,000 active | gsp mutant cells, cAMP HTRF, 30 min; control for the full effect not named in the record; active = well fitted activation curve with a large enough effect; inconclusive = small, poorly fitted or top-dose-only effect, or another doubt; inactive = no such curve, though single readings can be large or run the other way; cell line not stated here;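 note: phosphodiesterase inhibitor Ro 20-1724 added with compounds to block cAMP breakdown; potency is the fitted concentration of half-maximal effect; nearly all actives have a fitted effect of over 60% in size; about a fifth of the inactives were tested at one dose only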
#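 Cells in DMEM/10% FBS with G418 were pretreated with compounds in DMSO plus […] (300 uM stock) for 30 min at 37C. cAMP was measured by HTRF (cAMP-d2 plus anti-cAMP antibody-K) after 30 min at room temperature.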
# CtBP-E1A inh – qHTS Assay for Inhibitors of the CtBP/E1A Interaction. CtBP / adenovirus E1A interaction (AlphaScreen). AlphaScreen GST-E1A/His-CtBP binding, 1536-well; stronger effect = lower value; control for the full effect not named in the record. activity change, % (concentration not given with the values). 0.49% of 340,000 active. AID 651724, 2012; in the data active means activity change below about -65%; inconclusive means about -30% to -65%; inactive means above about -30%; note: % is set by controls: 0 for no effect and ±100 for the full control effect
#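 GST-E1A and His-tagged CtBP (125 nM each as 5X stock) were preincubated with pin-transferred compound for 2 h at 37 °C in the dark, then glutathione donor and nickel acceptor beads were added for 1 h before AlphaScreen reading.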
# D2 ag – Beta-Arrestin HTS for Positive Allosteric Modulators of the Human D2 Dopamine Receptor: Agonists | D(2) dopamine receptor (Homo sapiens), P14416 | 0.084% of 360,000 active | activation, % (concentration not given with the values) | AID 624465, 2012 | DiscoveRx PathHunter D2 beta-arrestin, luminescence, 90 min; 100% = 57 uM dopamine signal; in the data active = activation above about 40%; inconclusive = about 15% to 40%; inactive = below about 15%; note: compound concentration not given in the record; the text of the record calls up to 30% inactive
# Target sequence (P14416 whole entry, looked up): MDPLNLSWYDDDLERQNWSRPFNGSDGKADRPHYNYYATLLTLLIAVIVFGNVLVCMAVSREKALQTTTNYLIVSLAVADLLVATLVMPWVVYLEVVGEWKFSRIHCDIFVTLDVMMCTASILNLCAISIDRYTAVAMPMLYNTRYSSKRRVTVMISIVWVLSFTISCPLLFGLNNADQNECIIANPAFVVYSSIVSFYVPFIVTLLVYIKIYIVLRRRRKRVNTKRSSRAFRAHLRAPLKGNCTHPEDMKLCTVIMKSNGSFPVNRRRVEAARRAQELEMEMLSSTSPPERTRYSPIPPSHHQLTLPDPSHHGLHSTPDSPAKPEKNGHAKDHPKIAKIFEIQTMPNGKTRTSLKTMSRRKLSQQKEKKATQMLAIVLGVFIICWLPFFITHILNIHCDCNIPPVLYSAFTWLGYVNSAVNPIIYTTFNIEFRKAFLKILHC
#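 DiscoveRx PathHunter D2 beta-arrestin cells (2,100/well) attached overnight, then compound-stimulated 90 min at 37 C in HBSS/10 mM HEPES/0.1% Tween-20 buffer; beta-galactosidase complementation read by luminescence after 1 h at ambient temperature. Dopamine 57 uM final (EC100) as control.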
# gsp antagonist – qHTS for Antagonists of gsp, the Etiologic Mutation Responsible for Fibrous Dysplasia/McCune-Albright Syndrome: qHTS. gsp-mutant cells, cAMP HTRF, 30 min; control for the full effect not named in the record. Potency, µM (top dose mostly 76.9 µM), inactives show at the highest dose activity change, negative = inhibition, actives largely listed as inhibitors. 0.4% of 340,000 active. AID 624288, 2012; active = falling curve of any shape with a large fitted effect; inconclusive = falling curve, mostly with a smaller effect; inactive = flat or rising curve; cell line not stated here;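 note: intracellular cAMP measured with PDE inhibitor Ro 20-1724 present during compound exposure; potency is the fitted concentration of half-maximal effect; % is set by controls: 0 for no effect and ±100 for the full control effect; nearly all actives have a fitted effect of over 65% in size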
#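 Cells in G418 medium, seeded 16-24 h, 37C; buffer exchange to DPBS + 1 mM CaCl2, 0.5 mM MgCl2, 0.05% BSA; cpds in DMSO + […] (300 uM stock), 30 min 37C; HTRF cAMP detection.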
# Six1-Eya2 inh – qHTS Assay for Inhibitors of the Six1/Eya2 Interaction; Homeobox protein SIX1 (Homo sapiens) + Protein phosphatase EYA2 (Homo sapiens), …; AlphaScreen GST-Six1/His-Eya2 binding, biochemical; stronger effect = lower value; control for the full effect not named in the record; activity change, % (test concentration not listed); 0.56% of 360,000 active; in the data active = activity change below about -65%; inconclusive = about -30% to -65%; inactive = above about -30%; note: % is set by controls: 0 for no effect and ±100 for the full control effect; compound concentration not given in the record
#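 Six1/Eya2 binding was read as AlphaScreen signal after compounds were pinned into GST-Six1 plus His-tagged Eya2 (5X stock 250/500 nM) in pH 8.0 Tris/NaCl/TCEP buffer, beads added, then incubated 1 h, 37 C, dark.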
# D2 potentiator – Beta-Arrestin HTS for Positive Allosteric Modulators of the Human D2 Dopamine Receptor: Potentiators | 0.23% of 360,000 active | potentiation, % (concentration not given with the values) | AID 624464, 2012 | DiscoveRx D2 beta-arrestin cells, luminescence, 90 min; 100% = 57 uM dopamine signal; active = potentiation of 50% or more; inconclusive = 30% to 50%; inactive = 30% or less;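 note: compound concentration not given in the record; tested on top of an EC20 dose of dopamine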
#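 PathHunter D2 cells, attached overnight at 37 deg C, received compound in DMSO plus dopamine at EC20 (50 nM final) for 90 min at 37 deg C. Beta-arrestin recruitment was read as luminescence after 1 h with detection reagent at ambient temperature.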
# Starred values were filed as active, the others as inactive; u = inconclusive; x = no result given; [ ] = dose if it differs, or a comment.
SMILES,gsp ag,CtBP-E1A inh,D2 ag,gsp antagonist,Six1-Eya2 inh,D2 potentiator
CC1(C)CC(=Cc2cc(O)ccc2[N+](=O)[O-])C(=O)c2ccccc21,-35%[inhibitor],1,-5.1,x,-1,-13
COc1cc(C(C)=O)ccc1Oc1ncnc2c1cnn2-c1ccccc1,-38%,26,-4.0,7%,12,4
CC1=CC2=NCC(O)CN2C=C1 (centres undefined),26%,-2,-1.9,7%,2,-8
CCCCC(=O)OCc1nc(N)nc(Nc2ccccc2C)n1,-8%,x,-2.6,7%,-1,-5
Cc1cc(=O)oc2cc(OCc3ccc(C(=O)OCC(=O)Nc4ccccc4OC(F)F)cc3)ccc12,-3%,-4,-3.6,-2%,1,-1
O=C(NCCCn1ccnc1)c1ccc(S(=O)(=O)N2CCCCCC2)cc1,8%,-1,-1.3,-3%,12,-19
O=C(Nc1nccs1)c1ccc(-c2ccc(F)c(Cl)c2)o1,22%,-20,-1.7,u,-18,-5
CCC1(c2ccccc2)CN(C)C1=O (centres undefined),1%,-22,-4.4,x,11,-10
CCCS(=O)(=O)NC(=O)C1(C)CCCN(C(=O)c2ccc(OC)cc2OC)C1 (centres undefined),x,2,-5.2,x,3,2
Cc1nn(C)cc1CN(C)Cc1ccc(OCC(O)CN2CCCCC2)cc1 (centres undefined),u,-7,-2.5,8%,5,-22
O=C1CCCc2sccc2N1,24%,6,-0.9,-7%,-1,1
COc1ccc(S(=O)(=O)N2CCN(C(=O)Cc3ccsc3)CC2)cc1,4%[15.4 µM],-1,-2.0,12%,6,-5
CCN(C(=O)COC(=O)c1ccc2c(c1)OCO2)c1c(N)n(Cc2ccccc2)c(=O)[nH]c1=O,-9%,10,-5.0,12%,1,6
O=C1c2ccccc2C(=O)N1OCc1ccccc1[N+](=O)[O-],-4%[15.4 µM],2,-4.5,7%,3,2
Cc1ccc(NC(=O)CN(C)S(=O)(=O)c2ccc(Cl)s2)c(O)c1,10%,x,-0.8,6%,4,1
CC(=O)Nc1ccc(S(=O)(=O)N(C)c2ccc(OCC(=O)Nc3ccccc3C(C)=O)cc2)cc1,-48%[inhibitor],-9,-3.0,-8%,-26,-12
CC1(C)CC(N2CCCC2)=CC(=[N+]2CCCC2)C1,u,5,-3.8,1%,5,-3
CCCCN1C(=O)C(CC(=O)NC2CCCC2)CC(C(=O)N(C)C)=C1C (centres undefined),-12%,1,-7.9,x,-2,-1
COC(=O)[C@]1(Cc2ccccc2)N[C@H](CN(C)C(=O)c2ccccc2)[C@@H]2C(=O)N(C)C(=O)[C@@H]21,x,0,-1.5,-7%,4,-5
COCCCC1CCN(Cc2nc(-c3ccccc3)no2)CC1,2%[15.4 µM],22,-0.6,1%,17,-13
COCCn1c(C)cc(/C=N/NC(=O)c2cccnc2)c1C,-3%[15.4 µM],3,1.3,-5%,2,-5
Cc1cccc(NC(=O)c2cc(S(=O)(=O)N3CCc4ccccc43)cn2C)c1C,-33%[inhibitor],4,-4.6,7%,-1,0
Cc1ccc(CNC(=O)CCc2c(C)[nH]c(=O)c(C#N)c2C)cc1,-16%[15.4 µM],9,-2.8,1%,-3,-10
CC1CCCCN1C(=O)Cn1c(=O)oc2ccccc21 (centres undefined),-2%,-1,-0.2,13%,1,-13
Cc1ccc(CNC(=O)c2ccc(CN3CCOCC3)cc2)cc1,0%,1,-1.5,17%,5,5
COc1cccc(CC(=O)OCC(=O)NNC(=O)c2ccc(Br)cc2)c1,-15%,-2,0.7,18%,-5,-2
COc1ccc(C(=O)Nc2ccc3[nH]ncc3c2)cc1,2%,x,-1.2,0%,2,7
Cc1cc(C)nc(SCC(=O)Nc2ccc(S(=O)(=O)Nc3onc(C)c3C)cc2)n1,u,8,-3.2,19%,0,-4
CCOC(=O)c1cc2nc(OCC)nc(OCC)c2[nH]1,-4%,-1,4.4,-1%,-4,-1
O=C(NCCOc1ccc2ccccc2c1)c1cncc(Br)c1,29%,1,-1.8,-28%,3,-6
NS(=O)(=O)c1cc(C(=O)NCCc2ccccn2)ccc1Cl,-20%,-8,-3.5,-6%,0,-11
CCNC(=S)N/N=C/c1cn(Cc2ccccc2F)c2ccccc12,0%,-12,0.8,-13%,-12,2
CCCNC(=O)COC(=O)/C=C/c1ccc(C)o1,-1%[15.4 µM],-19,-2.6,4%,4,-6
COc1ccc(OC)c(NC(=O)c2ccc3c(=O)n(CCc4ccccc4)c(=S)[nH]c3c2)c1,-38%[inhibitor],3,0.8,-6%,6,-3
Cc1ccc2nc(-c3ccccc3NC(=O)CCC(=O)O)c(=O)[nH]c2c1,4%[15.4 µM],-1,0.8,2%,-21,-5
Cc1cccc(NC(=O)c2ccc(OC3CSC3)cc2)c1,1%,5,2.3,8%,1,-12
S=C(NCc1ccccc1)N1CCN(Cc2ccc3c(c2)OCO3)CC1,-22%[15.4 µM],-6,-1.3,3%,-12,-12
O=C1c2ccccc2C(Nc2ccc(S(=O)(=O)N3CCOCC3)cc2)N1Cc1ccco1 (centres undefined),3%,-11,-3.6,-5%,4,3
Nc1nc(SCC(=O)Nc2ccccc2Sc2ccc(Cl)cc2)n[nH]1,-29%,-2,-1.8,2%,12,12
CN1CCC(N2CCN(C3CN(CCc4ccccc4)S(=O)(=O)C3)CC2)CC1 (centres undefined),x,4,-5.6,x,8,-8
Cn1c(C(=O)NCCN2CCc3ccccc3C2)cc2c(=O)[nH]c3ccccc3c21,6%,-20,3.9,11%,-15,-31
Cc1ccc(S(=O)(=O)N/N=C/c2ccc(O)c(O)c2)cc1[N+](=O)[O-],-34%,4,u,2%,-1,7
O=C(CSc1nnc(CNc2ccc(F)cc2)o1)N1c2ccccc2Sc2ccccc21,7%,-15,-2.8,-14%,-19,-5
CCOC(=O)Cn1c(S(=O)(=O)Cc2ccc(F)cc2)nc(-c2ccccc2)c1-c1ccccc1,-6%,-6,-1.1,-9%,-7,-15
COCCNC(=O)C1(C)CCN(C(=O)c2cc(C)n(C(C)(C)C)n2)C1 (centres undefined),x,4,-3.3,x,8,1
COCCCNCCOCCOc1ccc(Cl)cc1Br,-54%[inhibitor],-3,-6.4,9%,3,-52
CCOC(=O)CN(C(=O)CSc1nnc(-c2cccc(OC)c2)o1)c1ccc(F)cc1,-33%[inhibitor],-11,3.2,0%,11,4
S=C(Nc1cccc(Cl)c1Cl)N1CCCC1,-19%,0,-5.9,3%,0,-18
COc1ccc(CN(CC(=O)NCc2ccc(F)cc2)C(=O)CCC(=O)Nc2cc(C)ccn2)cc1,22%,-20,-1.0,-1%,-4,-6
O=C1CCCC(O)=C1C=Nc1ccc2c(c1)oc1ccccc12,1%,12,0.5,-1%,12,-6
Cc1cccc2cc3ccccc3nc12,-5%[15.4 µM],-6,-5.2,1%,1,1
CSc1nc(S(=O)(=O)c2ccc(C)cc2)c(N2CCOCC2)s1,-16%,-2,-1.8,x,4,-17
COc1cc2c(cc1OC)CN(CC(=O)Nc1ccc(F)cc1F)CC2,u,1,-2.1,4%,-10,-4
O=C1C=C(c2ccc3c(c2)oc2ccccc23)C[C@@H](c2ccc3c(c2)OCO3)C1,-4%,-2,-0.4,4%,-7,-6
COc1ccccc1N1CCN(C(=O)c2cc(=O)c3c(C)cc(C)cc3o2)CC1,0%,-1,-4.8,-11%,-2,-9
COc1ccc(-n2nnc3c(=O)n(CC(=O)Nc4ccc5c(c4)OCCO5)cnc32)cc1OC,6%,0,-1.8,-7%,1,-1
COc1ccccc1C(=O)N/C(=N/c1nc(C)cc(C)n1)Nc1ccccc1,u,6,8.4,u,9,14
CN(C)CCCNC(=O)c1cc(Br)ccc1O,-8%[15.4 µM],-6,0.0,-1%,-8,-11
O=C(Nc1ccc(F)cc1F)c1cc(-c2ccco2)on1,-39%,5,-2.1,2%,2,-8
COc1cc(NC(C)=O)c2ncccc2c1NC(C)=O,0%,x,-5.9,14%,1,-4
# New compounds follow:
SMILES,gsp ag,CtBP-E1A inh,D2 ag,gsp antagonist,Six1-Eya2 inh,D2 potentiator
COc1ccc(N2C(=O)c3ccccc3NC23CCCC3)cc1,12%[15.4 µM],4,-2.2,x,5,-10
O=C(CN1CCN(c2ccccn2)CC1)N1CCc2ccccc21,12%,5,-3.3,9%,2,-8
Clc1ccc(COc2cccc(CNCc3ccncc3)c2)cc1,-1%[15.4 µM],-9,4.2,-1%,5,-9
Cc1nc2nc(-c3ccc(Cl)cc3)cn2nc1C,-21%,7,-6.2,10%,-5,-9
Cc1cc(C)c2sc(NC(=O)c3ccc(N4C(=O)CCC4=O)cc3)nc2c1,18%,9,-2.8,10%,5,-8
CC1CCC/C(=N\NC(=O)COc2ccccc2Cl)C1 (centres undefined),5%,0,-5.1,3%,2,-2
CCN(CC(=O)Nc1ccc(NC(C)=O)cc1)C(=O)c1sc2nc3n(c(=O)c2c1C)CCC3,15%,-6,3.0,16%,-2,-4
CCCCc1nnc(NC(=O)CCS(=O)(=O)c2ccc(C)cc2)s1,u,1,1.5,0%,7,1
CC/C(=N/NC(=O)c1ccccc1O)c1c(C)[nH]n(-c2ccccc2)c1=O,-31%[inhibitor],u,-2.2,-16%,-27,-9
Cc1cc(=O)[nH]c(SCC(=O)Nc2ccc(Cl)cn2)n1,-4%,8,6.3,3%,4,21
COc1ccc(CN2CCCC(C(=O)N3CCCCC3)C2)c(OC)c1 (centres undefined),8%[15.4 µM],1,-4.6,16%,-7,-20
CCOC(=O)C1=C(C)N(C)C(C)=C(C(=O)OCC)C1c1ccccn1,-9%,0,-3.1,-13%,2,6
O=C(O)c1ccccc1C(=O)Nc1ccc(S(=O)(=O)Nc2nccs2)cc1,x,6,-8.4,2%,5,-3
COc1ccc2[nH]c(=S)cc(C)c2c1,u,x,-4.1,6%,0,-16

# Single values from above.
# Six1-Eya2 inh result of CCOC(=O)c1cc2nc(OCC)nc(OCC)c2[nH]1 → -4
# Six1-Eya2 inh result of COc1ccccc1C(=O)N/C(=N/c1nc(C)cc(C)n1)Nc1ccccc1 → 9

# 4 compounds from above, limited to Six1-Eya2 inh and D2 potentiator:
Structure | Six1-Eya2 inh | D2 potentiator
CCCCc1nnc(NC(=O)CCS(=O)(=O)c2ccc(C)cc2)s1 | 7 | 1
CC/C(=N/NC(=O)c1ccccc1O)c1c(C)[nH]n(-c2ccccc2)c1=O | -27 | -9
Cc1cc(=O)[nH]c(SCC(=O)Nc2ccc(Cl)cn2)n1 | 4 | 21
COc1ccc(CN2CCCC(C(=O)N3CCCCC3)C2)c(OC)c1 (centres undefined) | -7 | -20
